Calb biofilm kill: clotrimazole potentiators killing C. albicans biofilm, primary screen, 4-compound mixtures. 0.02% of 120,000 active. C. albicans biofilm persisters + clotrimazole, fluorescence viability; primary screen in compound mixtures of four per well. inhibition, % at 7.6 µM;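 active = inhibition above 30.3% in the primary screen of four-compound pools, then above 30% when the compound was retested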;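 note: compounds exposed to preformed 24 h biofilms for 48 h; the number belongs to the whole pool; some results filed as inactive read as strong as hits; inactives centre near 12; 0% = biofilm with clotrimazole alone and 100% = kill control; retested singly at about 60 µM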
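System: C. albicans CAF4-2 wild-type biofilms; Medium: RPMI/MOPS medium, pH 7.0; Reagent: Clotrimazole, 50 µg/mL; Times: biofilm formation 24 h, compound exposure 48 h, 37 °C; Detection: 2-h Alamar Blue fluorescence, 535/590 nm excitation/emission; Evaluation: percent inhibition of biofilm viability.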
* hit, by the source's call. An excerpt; rates above refer to the full screens.

compound	Calb biofilm kill
CC1(C)CC(=O)C/C(=N\NC(=O)C2CC2c2ccccc2)C1 (stereo not drawn)	11
CN1C[C@@H]2C[C@@H](C3=Cc4cc(Cl)ccc4OC3)N3CCC[C@@]23C1=O	-4
Cc1cccc(NC(=S)N(CCCN2CCCC2)Cc2cccn2Cc2ccc(Cl)cc2)c1	13
COc1ccc(/C=C2\SC(=S)N(C(Cc3ccccc3)C(=O)O)C2=O)cc1 (stereo not drawn)	-1
CC1(OC(=O)C2CCCC2)C(=O)C=C2C=C(c3ccsc3)N(c3ccccc3)C=C2C1=O (stereo not drawn)	6
CN(C)[C@@H]1CCC[C@@H]1OC(=O)C(c1ccccc1)c1ccccc1	9
CCn1cc(CNCc2c(C(=O)N3CCCCC3)nc3c(C)cccn23)cn1	29
O=c1cc(CN2CCCCC2)nc(C2CC2)[nH]1	15
C=CCNC(=O)CN1CCC(n2nnc3cc(C(F)(F)F)ccc32)CC1	-2
O=C(Nc1cc(S(=O)(=O)N2CCOCC2)ccc1O)c1ccc2c(c1)S(=O)(=O)c1ccccc1C2=O	15
O=C(CCc1nc2ccccc2[nH]1)Nc1ccc2c(c1)OCCO2	11
CC(=O)OCCCCCCCCCCC[N+]1(C)CCCCC1	-3
CCn1cc(CNC(=O)c2cc([N+](=O)[O-])c(C)c([N+](=O)[O-])c2)cn1	21
NS(=O)(=O)c1cccc(NC(=S)NCc2ccccc2)c1	3
Cc1cccc(OCC(O)Cn2c(=N)n(Cc3ccccc3)c3ccccc32)c1 (stereo not drawn)	16
COc1ccc(C2OC(=O)CC2C(=O)NCc2ccc(F)cc2)cc1OC (stereo not drawn)	9
Cn1c(O)c(N=NC(=O)C2COc3ccccc3O2)c2ccccc21 (stereo not drawn)	10
Cc1ccc(NC(=O)C2c3ccccc3Oc3ccccc32)c(C)c1	7
COc1cc(C(=O)OCCn2c(=O)c3c(ncn3CCN(C)C)n(C)c2=O)cc(OC)c1OC	14
N/C(=N\OC(=O)COc1ccccc1Cl)c1ccccn1	-3
COC(=O)/C(C#N)=C/c1c(Oc2cc(C)cc(C)c2)nc2c(C)cccn2c1=O	16
CC(NC(=O)C(C)(C)C)C(c1cccs1)N1CCN(Cc2ccccc2)CC1 (stereo not drawn)	12
CC1CCN(c2ccc(C(F)(F)F)cc2N)CC1	13
Cc1cc(C)cc(C(=O)NCC(=O)OCc2c(C)noc2C)c1	19
O=C1OC(/C(=C\Nc2cc(Cl)ccc2O)[N+](=O)[O-])c2ccccc21 (stereo not drawn)	19
Cn1nnnc1SCc1ccc(Cl)cc1	9
CN1CCc2nc(SCC(=O)Nc3ccc(OC(F)(F)F)cc3)c(C#N)c(-c3cccs3)c2C1	16
Cc1no[n+]([O-])c1COc1ccccc1/C=N/n1nnnc1N	11
COc1cc(NC(=S)NCCSc2ccc(C)cc2)cc(OC)c1	15
Cc1ccc(Nc2nc(N)[nH]c(=O)c2N=O)cc1	-1
CCOc1ccc(C(C)(C)C)cc1S(=O)(=O)n1nc(C)cc1C	12
O=c1[nH]nc(N2CCOCC2)c(=O)[nH]1	15
CCOC(=O)c1nc(Nc2cc(C)cc(C)c2)c2ccccc2n1	11
CCN1CCN(C(=S)Nc2cccc(C(F)(F)F)c2)CC1	4
COc1cc(/C=N/n2c(-c3ccccc3)n[nH]c2=S)ccc1O	25
O=c1c(C=NCc2ccccc2)c(NCc2ccccc2)nc2ccccn12	18
CCC1=NN2C(=N)/C(=C\c3cccn3-c3ccc(Br)cc3)C(=O)N=C2S1	12
O=C(Cc1ccccc1Cl)Nc1cccnc1	2
COc1ccc(NS(=O)(=O)c2ccc(NC(=O)CCNS(=O)(=O)c3ccc(C)cc3)cc2)cc1	-2
CC(NC(=O)c1cccc(S(=O)(=O)N2CCN(C)CC2)c1)C1CC2CCC1C2 (stereo not drawn)	2
COCCC(=O)N1CCCC(CCC(=O)NCc2ccc(F)c(F)c2)C1 (stereo not drawn)	22
O=C1CSC(=S)N1/N=C/c1ccc(Cl)c([N+](=O)[O-])c1	2
Cc1cccc(CC(C)NC(=O)CCc2nnc(-c3ccccc3)o2)n1 (stereo not drawn)	-4
Cc1oc2ccc(NS(=O)(=O)c3ccccc3)cc2c1C(=O)Nc1ccccc1	24
CCOC(=O)c1ccc(-n2c(CC)nc3ccccc3c2=O)cc1	5
O=S1(=O)CC/C(=N/Nc2ccccn2)c2cc(F)ccc21	4
CC(NC(=O)c1ccc(C(F)(F)F)cc1)C(c1ccccc1)N1CCOCC1 (stereo not drawn)	4
Cc1ccc2nc(-c3ccc(NC(=O)COCC(=O)O)cc3)sc2c1	9
C/C=C\C=C/C(=O)Nc1cccc(C2=NOC3(C2)C[C@@H](C(N)=O)N(C(=O)C2(C)CC2)C3)c1 (stereo partly drawn)	11
CCC(=O)Nc1cccc(-n2nnnc2SCC(=O)N(C(C)C)C(C)C)c1	9

Going on with the list.
compound	Calb biofilm kill
O=C(O)CCCNC(=O)CCn1nnc2ccccc2c1=O	19
C/C(=N\NC(=O)CN1CCN(Cc2ccc(C)cc2)CC1)c1ccncc1	17
CCCCc1n[nH]c2c1/C(=N/OCC)CC(C)(C)C2	-12
O=C(COc1ccc([N+](=O)[O-])cc1)NCCc1nc2ccccc2[nH]1	15
COc1ccc(CCNC(=O)c2ccccc2Cl)cc1OC	25
O=C(NC1CCOC1)c1ccc(OC2CCN(CCc3ccccc3)CC2)cc1 (stereo not drawn)	25
C=C(C)Cn1cnc2cc(C)c(C)cc21	3
CN1CCC(N(C)C(=S)NC(=O)C23CC4CC(CC(C4)C2)C3)CC1	12
CC(=O)c1cccc(NC(=O)c2noc3c2CCc2ccccc2-3)c1	0
O=C(/C=C/c1ccc[nH]1)c1ccc(F)cc1	21
CCOC(=O)Cn1cc(/C=N/NC(=O)c2cc3ccccc3o2)c2ccccc21	4
COc1ccc(NC(=S)NCCCN2CCCC2=O)c(OC)c1	5
CCCCNc1cnn(-c2ccccc2)c(=O)c1Cl	13
CN(C)c1ccc(/C=N/N=C2/SC(CC(=O)O)C(=O)N2c2ccc(O)cc2)cc1 (stereo not drawn)	9
CC(=O)Nc1cccc(/C(C)=N/NC(=O)c2ccc3c(c2)OCO3)c1	3
Cc1cc(-c2nn(-c3ccccc3F)cc2CN2CCCC(CO)C2)c(C)s1 (stereo not drawn)	9
Cc1ccccc1/C=C/C12NC(=O)CN1c1ccccc1C2(C)C (stereo not drawn)	24
COc1ccc([N+](=O)[O-])cc1NC(=O)C(C)c1ccccc1 (stereo not drawn)	9
COc1cc2ncnc(NCCCN3CCOCC3)c2cc1OC	-6
Nc1ncnc(Nc2cc(C(F)(F)F)cc(C(F)(F)F)c2)n1	13
O=C(Nc1cccc(F)c1)c1ccc(-c2ccccc2C(F)(F)F)o1	16
O=c1cc(CO)occ1OCc1c(F)cccc1Cl	7
CC1=C/C(=N\S(=O)(=O)c2ccccc2)C(C(C)C)=CC1=O	9
CCn1ncc([N+](=O)[O-])c1C(=O)Nc1nc2cccc(C)c2s1	15
CSC(=S)N/N=C(\C)c1ccccc1	2
Cn1ccnc1SCC(=O)c1ccc2ccccc2c1	-4
CC1=C(C(=O)OCCOc2ccccc2)C(c2ccsc2)NC(=O)N1C (stereo not drawn)	7
CC(=O)C1(C)N(O)C(C)(C)C(c2cccs2)=[N+]1[O-] (stereo not drawn)	6
Cc1ncc([N+](=O)[O-])n1CC(=O)Nc1ccc2c(c1)OCO2	6
CC(=O)OC(COc1ccccc1)Cn1cnc2ccccc21 (stereo not drawn)	42

Shown as labelled records: entries from further up.
O=c1cc(CO)occ1OCc1c(F)cccc1Cl
- Calb biofilm kill: 7
CC(=O)C1(C)N(O)C(C)(C)C(c2cccs2)=[N+]1[O-] (stereo not drawn)
- Calb biofilm kill: 6
Cn1ccnc1SCC(=O)c1ccc2ccccc2c1
- Calb biofilm kill: -4

The results go on:
compound	Calb biofilm kill
Fc1ccc(OCCCCN2CCOCC2)cc1	18
COc1ccc(/C=N/NC(=O)CCN2CCN(c3ccccc3)CC2)c(OC)c1OC	9
COc1ccc2c(c1)/C(=N/OC(=O)c1cccs1)CCC2	26
CCCCOC(=O)c1ccc(NC(=O)c2cc(Cl)c(Cl)cc2C(=O)O)cc1	2
Cc1cccn2c(=O)c(C=NCCO)c(Nc3ccc(Cl)cc3)nc12	1
Cc1ccccc1N=Cc1cccc(O)c1O	18
C=CCc1cccc2cc(C(=O)OCC)c(=O)oc12	7
COc1ccc(N2CCN(C(=O)c3cc(N4C(=O)C5C6CCC(C6)C5C4=O)ccc3Cl)CC2)cc1 (stereo not drawn)	13
CCc1ccc(NC(=O)COC(=O)CCc2nc3cc(S(=O)(=O)N(CC)CC)ccc3n2C)cc1	12
CC1(c2nnc(-c3ccc(Cl)cc3)o2)CC(c2cccc(Cl)c2)=NO1 (stereo not drawn)	1

Quoted at random: 4 compounds from above
compound	Calb biofilm kill
C=C(C)Cn1cnc2cc(C)c(C)cc21	3
Cc1cccc(CC(C)NC(=O)CCc2nnc(-c3ccccc3)o2)n1 (stereo not drawn)	-4
O=C(COc1ccc([N+](=O)[O-])cc1)NCCc1nc2ccccc2[nH]1	15
CCOC(=O)c1ccc(-n2c(CC)nc3ccccc3c2=O)cc1	5

Remaining list, next part
compound	Calb biofilm kill
Cc1ccc(C(=O)N/C(=C\c2cccs2)c2nc3ccccc3[nH]2)cc1	-6
CSc1nsc(SC)c1NC(=O)Nc1ccccc1C	15
CCOC(=O)c1sc2nc(-c3cccnc3)ccc2c1N	-7
O=C(NC(=S)N1CCc2ccccc21)c1ccco1	11
COc1ccc(CNC(=O)C2CC(c3cc(C(F)(F)F)cc(C(F)(F)F)c3)=NO2)cc1 (stereo not drawn)	10
N#C/C(=C\c1ccc(N2CCOCC2)o1)C(=O)Nc1ccc(O)cc1	7
O=C(NNc1c2ccccc2nc2ccccc12)c1ccccc1O	11
COc1ccc2sc(/C=C/c3ccccc3O)[n+](C)c2c1	8
CCCOc1ccc(N2C(=O)CC(N3CCN(CCN=CC4=C(O)CC(C)(C)CC4=O)CC3)C2=O)cc1 (stereo not drawn)	19
O=C(N/N=C/c1ccc(OCc2ccccc2)cc1)c1cc[n+](Cc2ccccc2)cc1	9
O=C(N/N=C/c1cccc(C(F)(F)F)c1)c1ccccc1O	9
COc1cc(Cl)c([C@@H]2C[C@H]3CN(c4ccccc4)C(=O)[C@]34CCCN24)cc1OC	8
Cc1[nH]nc(SCC(=O)NCc2ccc(F)cc2)c1[N+](=O)[O-]	2
CC(=O)N=c1sc(S(N)(=O)=O)nn1C	13
O=C(O)CCC(=O)Nc1ccccc1C(=O)NCc1ccccc1	12
CC(=O)c1ccc(N2CCN(c3ccc(C(N)=O)cc3[N+](=O)[O-])CC2)cc1	18
CCOC(=O)N1CCC(N2Cc3cccc(C(=O)NCc4ccc5c(c4)OCO5)c3C2=O)CC1	16
CCOC(=O)C1(Cc2ccc(OC)cc2)CCN(C(=O)CCc2cnccn2)CC1	20
Cc1ccc2nc(NCc3ccccc3)c(C=O)c(=O)n2c1	15
CCOc1ccc(OCc2ccc(C(=O)N/N=C(\C)c3ccccn3)cc2)cc1	0
CC1(C)OC(=O)C(=CNNc2c(Cl)cc(Cl)cc2Cl)C(=O)O1	12
O=C(OCCN1C(=O)c2cccc3c(N4CCOCC4)ccc(c23)C1=O)c1ccc(Cl)cc1	16
CCCCC(=O)Nc1ccc(S(=O)(=O)Nc2nccc(C)n2)cc1	9
Cc1ccsc1/C=N/NS(=O)(=O)c1ccc([N+](=O)[O-])cc1	7
NC(=O)c1cc([N+](=O)[O-])ccc1N1CCCCC1	12
COC(=O)c1sc2ccccc2c1NC(=O)c1ccc(S(=O)(=O)N2CCCCC2)cc1	13
CCCCC(=O)NC(c1cccc([N+](=O)[O-])c1)c1c(OC(C)=O)ccc2ccccc12 (stereo not drawn)	25
CC(=O)c1c(C)oc2ccc(N(C(C)=O)S(=O)(=O)c3cccc([N+](=O)[O-])c3)cc12	-2
Cc1ccc2[nH]c(=O)c(CN(CCO)C(=O)NCc3ccccc3)cc2c1	7
CCCCCOc1ccc(CSC2=NCCN2)cc1[N+](=O)[O-]	15
N/C(=N\OC(=O)Cc1cccs1)c1cccc([N+](=O)[O-])c1	12
CC(=O)Nc1ccc(-c2cc(-c3ccc(NC(C)=O)cc3)nc(-c3ccc(NC(C)=O)cc3)n2)cc1	16
Fc1ccccc1Nc1nc(Cl)nc(Cl)n1	14
O=c1c(Cl)c(Cl)cnn1Cc1nnc(-c2ccccc2Br)o1	5
COC(=O)c1ccc(NC(=S)NC2CCc3ccccc32)cc1 (stereo not drawn)	11
S=C1N(c2ccccc2)CN(CCN2CCOCC2)CN1c1ccccc1	20
CN1C(=O)/C(=C/c2cc3c(cc2Br)OCO3)NC1=S	11
